VACV Venus inh: vaccinia inhibition (Venus reporter); Vaccinia virus Venus reporter expression, fluorescence; Potency, µM (titrated, usually from 36.5 µM), for the others: at the highest dose activity change, negative = inhibition, usual class: inhibitors; actives 0.46% (n = 330,000); AID 720580; active means well fitted inhibition curve with a large enough effect; inconclusive means small, poorly fitted or top-dose-only effect; inactive means no such curve, though single readings can be large or run the other way; tested in A549 cells; further: nearly all actives have a fitted effect of over 30% in size; inactives centre near -10
VACV mCherry inh: inhibitors of vaccinia virus infection (mCherry reporter signal) | Potency, µM (series often up to 36.5 µM), inactives show at the highest dose activity change, negative = inhibition, most hits filed as inhibitors | Vaccinia virus mCherry reporter infection, fluorescence; about a quarter of the inactives have no number | AID 720579 | actives 0.63% (n = 310,000); active = well fitted inhibition curve with a large enough effect; inconclusive = small, poorly fitted or top-dose-only effect; inactive = no such curve, though single readings can be large or run the other way; tested in A549 cells; further: nearly all actives have a fitted effect of over 35% in size; inactives centre near -10
Numbers without * were called inactive; i = inactive; u = inconclusive; x = not tested or not shown; & = joins results of further samples; [ ] = remark or other dose. On the % scale 0 is the no-effect control and ±100 the full control effect; potency means the concentration at half of the fitted maximal effect. Compounds as they come. About 0.87% of those tested had a hit in this group.

SMILES	VACV Venus inh	VACV mCherry inh
CC(=O)OCC1=C(C(=O)O)N2C(=O)C(NC(=O)COc3ccc(F)cc3)C2SC1 (centres undefined)	-2%	i
Cc1ccc(S(=O)(=O)Nc2cc(S(=O)(=O)N3CCOCC3)ccc2NCC2CCCO2)cc1 (centres undefined)	-4%	-17%
CN(C)CCc1c[nH]c2ccc(Cn3cncn3)cc12	-6%	i
Cc1cc(F)ccc1NC(=O)C1CCN(S(=O)(=O)c2ccc3c(c2)CCCC(=O)N3)CC1	-12%&-8%	-10%&-7%
CCN(CC)c1ccc(/C=N/n2c(=S)[nH]nc(C)c2=O)cc1	3%	x
CCC(c1nnnn1Cc1ccc2c(c1)OCO2)N1CCN(c2ccc(OC)cc2)CC1 (centres undefined)	u	-29%
Cc1ccc(NC(=O)NCc2ccc3c(c2)CCN3C(=O)c2ccccc2)c(Cl)c1	u	u
CC(C)Sc1nc2c(c(=O)[nH]c(=O)n2C)n1CC(O)COc1ccccc1 (centres undefined)	-4%	-7%
O=C(c1ccco1)N1CCN(C(=S)Nc2ccccc2C(F)(F)F)CC1	-19%	-26%
COc1ccc(-c2cc(-c3cccnc3)c(C#N)c(N)n2)cc1	7%	i

Fetched by compound from the entries so far:
SMILES	VACV Venus inh	VACV mCherry inh
Cc1ccc(NC(=O)NCc2ccc3c(c2)CCN3C(=O)c2ccccc2)c(Cl)c1	u	u
O=C(c1ccco1)N1CCN(C(=S)Nc2ccccc2C(F)(F)F)CC1	-19%	-26%
CCC(c1nnnn1Cc1ccc2c(c1)OCO2)N1CCN(c2ccc(OC)cc2)CC1 (centres undefined)	u	-29%
CC(C)Sc1nc2c(c(=O)[nH]c(=O)n2C)n1CC(O)COc1ccccc1 (centres undefined)	-4%	-7%
Cc1ccc(S(=O)(=O)Nc2cc(S(=O)(=O)N3CCOCC3)ccc2NCC2CCCO2)cc1 (centres undefined)	-4%	-17%
CCN(CC)c1ccc(/C=N/n2c(=S)[nH]nc(C)c2=O)cc1	3%	x

(further entries)
SMILES	VACV Venus inh	VACV mCherry inh
CCN(Cc1ccccc1)C(=O)Cn1c(=O)oc2ccccc21	-11%	-2%
OCc1nc2ccccc2n1CC(O)COc1ccccc1 (centres undefined)	-6%	-17%
COCCNc1nc2c(c(=O)n(C)c(=O)n2C)n1Cc1cccc(C(F)(F)F)c1	u	x
O=C(Nc1ccccc1C(=O)Nc1ccccc1C(=O)O)c1ccccc1	-11%	-19%
Cc1ccnc2ncccc12	-4%	-18%
COc1ccc(/C=C/C(=O)NCCc2ccc(OC)c(OC)c2)cc1	-12%	-27%
CC(C)NC(=O)CN(C)S(=O)(=O)c1ccc(F)cc1	-6%	-21%[1.46 µM]
CN(Cc1cccc(Cl)c1)C(=O)C1CCN(C(=O)Nc2ccccc2)CC1	-17%	-10%
O=S(=O)(NC1=NCCCCC1)c1ccc(Cl)cc1	-10%	-7%
c1coc(-c2nc3c([nH]2)CCc2nonc2-3)c1	-15%	-14%
CC(=O)Nc1c(Cl)cc2c(c1Cl)Cc1cc(C#N)ccc1-2	-5%	i
Clc1ccc(CNC23CN4CN(CN(C4)C2)C3)c(Cl)c1	-10%	i
COc1ccc(CN2C[C@@H](CO)O[C@@H](n3cnc4c(N5CCCC5)ncnc43)C2)cc1	-2%	12%
O=S(=O)(c1ccccc1)N1CCN(c2ccnc3cc(Cl)ccc23)CC1	u	u
COc1ccc(NC(=O)C2(C)Cc3c(-c4ccc(NC(C)=O)cc4)ccnc3O2)cc1OC (centres undefined)	-10%	8%
O=c1[nH]c(-c2ccc(F)cc2)nc2c1sc(=S)n2-c1ccccc1	-10%	0%
COCCOC(=O)c1c(C)oc2cc(Br)c(OCC(N)=O)cc12	-9%	-6%
O=C(NNC(=O)c1ccc2ccccc2c1)c1ccc(Cl)c(Cl)c1	6%	u
Cc1nc2ccccc2c2c1C(=O)N(C(C)C)C2=O	-5%	-11%
Cc1cc(C)cc(NC(=O)C(c2ccccc2)N2CCCC2)c1 (centres undefined)	-8%	i
CN(C)c1ccc(/C=N/n2c(-c3ccccc3Br)n[nH]c2=S)cc1	14%	i
Cc1ccc(OCC(=O)N2CCN(S(=O)(=O)c3ccc(Cl)cc3)CC2)c([N+](=O)[O-])n1	-14%	i
O=C(C=Cc1ccc2c(c1)OCO2)c1ccccc1	3%	-6%
CCCN(C(=O)c1coc(=O)c2ccccc12)c1ccccc1C	1%	-15%
CCN(CC)S(=O)(=O)c1ccc(C(=O)OCn2c(SC)nnc(C)c2=O)cc1	-13%	-15%
COc1ccc(NC(=O)c2ccc([N+](=O)[O-])o2)cc1	u	u
CCCCNC(=O)C1c2ccccc2OCC(=O)N1Cc1ccco1 (centres undefined)	0%	35%[activator]
CCNC(=O)CC1C(=O)N(c2ccc(F)cc2)C(=O)N1CCc1sccc1C (centres undefined)	-18%	i
O=C(CSc1nc2ccccc2c(=O)n1CCCN1CCOCC1)Nc1cccc(S(=O)(=O)N2CCCCCC2)c1	u	u
Clc1ccc2oc(-c3ccccn3)nc2c1	1%	-5%
O=C(NC(=S)N1CCN(C2CCCCC2)CC1)c1ccccc1	-10%	-11%
O=C(NCc1ccccn1)c1cc(-c2ccccc2)on1	-3%	i
O=C(Nc1nc(-c2ccccn2)cs1)C1COc2ccccc2O1 (centres undefined)	u	u
Cc1ncc([N+](=O)[O-])n1CCOC(=O)c1ccccc1	-10%	-8%
CC(=O)Nc1nonc1-c1nnc(SCC(=O)Nc2ccc(C)cc2)n1-c1ccccc1	-12%	-8%
COc1ccc(-c2noc(CCC(=O)N3CCC(C)CC3)n2)cc1	-20%	-9%
Cc1ccc(C)c(-n2cc(CNC(C)Cn3cncn3)c(-c3ccccc3)n2)c1 (centres undefined)	-17%	u
COc1ccc(C2=NN(CC(=O)NCCc3ccc(OC)c(OC)c3)C(=O)CC2)cc1	-5%	-6%
O=C(O)c1ccccc1C(=O)N1CCN(S(=O)(=O)c2cccc(C(F)(F)F)c2)CC1	4%	i
COC(=O)CN1C(=O)N/C(=C/c2cc(Cl)c(OC)c(OC)c2)C1=O	-16%	-4%
CN1CCN(C(=O)c2cc(COc3ccc(F)cc3Cl)on2)CC1c1ccccc1 (centres undefined)	-26%	u
CCC(N)C(O)c1ccc(O)c(O)c1 (centres undefined)	-5%	-5%
S=C(NCc1ccco1)Nc1ccc(Br)cc1Cl	-18%	-24%
O=C(COC(=O)c1ccc([N+](=O)[O-])o1)NCc1ccccc1	-17%	-15%
O=c1[nH]c2ccc(NCc3ccc(-c4ccccc4)o3)cc2[nH]1	u	u
O=C(/C=C/c1c(F)cccc1Cl)c1ccc(F)cc1	-10%	x
COC(=O)c1c(NC(=O)CCCOc2cccc(C)c2)sc2c1CCC2	2%	-10%
COc1cc(/C=N/Nc2ncc(C(F)(F)F)cc2Cl)cc(OC)c1O	-21%	-8%
Cc1c(NCc2nc3ccccc3[nH]2)c(=O)n(-c2ccccc2)n1C	0%	-13%
COc1ccc(N2CCN(c3ccc(-c4nc(-c5ccccc5)no4)cc3[N+](=O)[O-])CC2)cc1	-1%	-7%

Further records:
SMILES	VACV Venus inh	VACV mCherry inh
CCc1nc2c(OCCC3CCCCC3)cccn2c1N(C=O)Cc1ccc(OC)cc1	-10%	13%
CC(=NCCc1ccccc1)c1c(O)[nH]c(=O)[nH]c1=O	-16%[7.34 µM]	-1%[7.34 µM]
Cc1cc(C)cc(OCC(=O)N(Cc2ccc(C)o2)C2CCS(=O)(=O)C2)c1 (centres undefined)	-8%	-10%
CC(OC(=O)Cc1c(F)cccc1Cl)C(=O)NCCC1=CCCCC1 (centres undefined)	-5%	-15%
COC(=O)c1ccc(S(=O)(=O)N2Cc3ccccc3C2)cc1	2%	9%
Cc1ccc(Cl)c(OCC(=O)OCC(=O)NC2CCCc3ccccc32)c1 (centres undefined)	2%	-8%
COc1cc(CNCCc2c[nH]c3ccccc23)ccc1OCc1ccc(F)cc1	u	10µM*
Cc1cccc(-n2c(C)cc(C(=S)N3CCOCC3)c2C)c1C	-17%	i
CC1CCN(C(=O)/C(=C\c2ccccc2F)NC(=O)c2ccccc2)CC1	-4%	3%
Cc1ccc2nc(N(Cc3cccnc3)C(=O)c3cccs3)sc2c1	-17%	-4%
O=C(Nc1cccc2ccccc12)NC1CC1	-3%	-3%
C/C=C/c1ccc(OCCCCN2CC(C)CC(C)C2)c(OC)c1 (centres undefined)	-11%	u
CCOc1ccc(-c2nc(N)ncc2Oc2ccccc2Br)c(O)c1	u	x
CN(C)C(=O)Nc1cccc(OC(=O)N(C)C)c1	-11%	-5%
Cc1cccc(N2CCN(C(=O)c3ccc(NC(=O)c4nsc5ccccc45)cc3)CC2C)c1 (centres undefined)	-29%	-27%
N#CCC(=O)N/N=C/c1cc([N+](=O)[O-])ccc1N1CCOCC1	-8%	-12%
CNC(=S)N1CCN=C1Nc1nc(C)cc(C)n1	-8%	-6%
Cc1ccnc(Nc2nc(-c3sc(C)nc3C)cs2)c1	u	3.5µM*
CS(=O)(=O)Nc1ccc(S(=O)(=O)N2CCCCCC2)cc1	-5%	-6%
COc1cc2nc(CN3CCN(S(=O)(=O)c4ccc(C)c(C)c4)CC3)[nH]c(=O)c2cc1OC	-19%	-5%
C=CCn1c(SCc2nc3cc(C(F)(F)F)ccc3c(=O)[nH]2)nc2sc(CC)cc2c1=O	-3%	-14%
CCNC(=O)/C=C1\NC(C)(C)Cc2c1ccc1ccccc21	-11%	-21%
CC(=C\C(=O)O)/C(=C/c1ccco1)C(=O)O	0%[7.34 µM]	i[7.34 µM]
O=C(c1[nH]c(C(F)(F)F)nc1-c1ccccc1)N1CCN(c2ncc(C(F)(F)F)cc2Cl)CC1	-10%	i
Cc1ccc(S(=O)(=O)Nc2cc(-c3nn(C)c(=O)c4ccccc34)ccc2N2CCOCC2)cc1	u	u
CCOC(=O)c1oc2ccc(CNC(C)(C)C)c(Cl)c2c1C	-23%	-5%
Cc1nn(Cc2ccc(Cl)cc2)c(C)c1NC(=O)CSc1nc2c(c(C(F)(F)F)n1)CCc1ccccc1-2	-11%	-11%
CCOC(=O)c1oc2ccc(/C=N/O)c(Cl)c2c1C	-7%	i
N/C(Cc1cccc2ccccc12)=N\O	-6%	-9%
CC(C)Cc1nnc(NC(=O)c2cc3c(s2)CCC3)s1	-2%	-5%
CC(=O)Nc1ccc(S(=O)(=O)NCc2ccc3c(c2)CCN3C(C)=O)cc1	4%	-4%
CCn1c(SCC(=O)Nc2ccc3c(c2)OCCO3)nnc1C(C)C	-14%	-24%
COc1ccc(OC)c(CN2CCN(C(=O)c3ccco3)CC2)c1	-16%	-20%
O=S(=O)(Nc1c(S(=O)(=O)c2ccccc2)c2nc3ccccc3nc2n1C1CCCCC1)c1ccccc1	10µM*	13µM*
O=C(NC1CCCCNC1=O)c1ccco1 (centres undefined)	-11%	i
CCCCN(C(=O)C1CC(=O)N(c2ccc(OC)cc2OC)C1)c1c(N)n(CC(C)C)c(=O)[nH]c1=O (centres undefined)	4%	0%
CC1(C)N=C(N)N=C(N)N1c1cccc(CC(=O)Nc2ccccc2)c1	u	-26%
COC(=O)c1ccc(CNCC(O)COc2ccc(-c3ccccc3)cc2)cc1 (centres undefined)	2%	-12%
Cn1c(CNC(=O)c2ccc(F)cc2)nc2ccccc21	-13%	0%
O=C(NC1CCCC1)c1ccc2c(=O)n(Cc3ccccc3)c(SCc3ccc([N+](=O)[O-])cc3)nc2c1	-14%	-19%
CCOc1ccc(N2C(=O)Nc3ccccc3C2(O)C(=O)NCc2ccc(C)cc2)cc1 (centres undefined)	-16%	-23%
Cc1ccsc1C(=O)NCC(=O)OCc1ccccc1	-10%	-23%
Cc1ccc(Nc2cc(C(=O)NCCc3ccccc3)c3ccccc3n2)c(C)c1	4%	-9%
CCOC(=O)c1sc(NC(C)=O)nc1C	5%	-4%
CCOC(=O)Cc1csc(NC(=S)NC(=O)c2cccc([N+](=O)[O-])c2)n1	-3%	i
N#Cc1c2n(c(=S)n(-c3ccccc3[N+](=O)[O-])c1=O)CCCCC2	-2%	5%
COc1ccc(CNC(=O)Cn2nnc(-c3ccc(NC(=O)C4CCCCC4)cc3)n2)cc1	-7%	i
O=[N+]([O-])c1cc(Br)c2nsnc2c1N1CCOCC1	u	-8%
CCCCCn1c(N(C)Cc2ccccc2)nc2c1c(=O)[nH]c(=O)n2C	-16%	-12%
Cc1ccc(-c2nc(NC(=O)c3nn(C)cc3[N+](=O)[O-])sc2C)cc1C	13µM*	10µM*
CC1CN=C(NCc2ccncc2)S1 (centres undefined)	-3%	x
O=C1c2ccccc2NC(c2ccccn2)N1c1ccc(Cl)cc1 (centres undefined)	-7%	x

Compound profiles (already shown). Screens in order: VACV Venus inh	VACV mCherry inh
O=[N+]([O-])c1cc(Br)c2nsnc2c1N1CCOCC1 as listed: u	-8%
Cc1ccc(Nc2cc(C(=O)NCCc3ccccc3)c3ccccc3n2)c(C)c1 as listed: 4%	-9%
CC1CN=C(NCc2ccncc2)S1 (centres undefined) as listed: -3%	x

Screening results from PubChem BioAssay.
